# Assay outcomes as filed in PubChem.
# VDR inhibitor: vitamin D3 receptor (human) inhibition | Potency, µM, for the others: max response, negative = inhibition, usual class: inhibitors | AID 504847 | 400,000 tested, 0.93% active | VDR-SRC2-3 peptide fluorescence polarization, 2 h | P11473; active means well fitted inhibition curve with a large enough effect; inconclusive means small, poorly fitted or top-dose-only effect, or another doubt; inactive means no such curve, though single readings can be large or run the other way; further: series mostly up to about 120 µM
# Target sequence (P11473 whole entry, looked up): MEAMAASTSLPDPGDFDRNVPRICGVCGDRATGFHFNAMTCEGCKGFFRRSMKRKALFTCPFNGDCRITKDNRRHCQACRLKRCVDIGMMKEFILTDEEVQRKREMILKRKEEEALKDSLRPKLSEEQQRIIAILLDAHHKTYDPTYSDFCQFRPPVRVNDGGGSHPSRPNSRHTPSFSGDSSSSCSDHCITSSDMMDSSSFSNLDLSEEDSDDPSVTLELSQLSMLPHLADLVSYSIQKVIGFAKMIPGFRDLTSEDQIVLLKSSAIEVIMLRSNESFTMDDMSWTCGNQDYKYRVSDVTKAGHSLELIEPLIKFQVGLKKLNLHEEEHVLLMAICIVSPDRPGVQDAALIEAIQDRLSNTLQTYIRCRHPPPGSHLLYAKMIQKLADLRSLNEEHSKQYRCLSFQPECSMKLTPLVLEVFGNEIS
#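 Compounds are added to VDR with labelled SRC2-3 coactivator peptide and held 2 h at room temperature. Inhibition of the VDR–peptide interaction is then read as a change in fluorescence polarization.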
# * hit, by the source's call; u = inconclusive; & = joins results of further samples. On the % scale 0 is the no-effect control and ±100 the full control effect; potency means the concentration at half of the fitted maximal effect.
SMILES,VDR inhibitor
COC(C/C=C/C=C/CC/C=C\CC(C)/C=C\C(=C/C(=O)O)CC(=O)O)/C(C)=C\C=C(/C)C(=O)O (stereo not drawn),-9%
CCOCCCn1c(N)c(C(=O)Nc2sc3c(c2C(=O)OC)CCCC3)c2nc3ccccc3nc21,12%
Cc1cc(N2CCCCC2)ccc1C=C1C(=O)N(C)C(=S)N(C)C1=O,u
Cc1ccc(CN2CCN(Cc3ccccc3F)CC2)cc1,11%
Cc1cc(OC(=O)N(C)C)nc(SCc2c(Cl)cccc2Cl)n1,4%
Cc1nonc1OCCNc1ccc([N+](=O)[O-])c2cccnc12,-4%
CCCCn1c(O)c(C(CC)=NCc2ccco2)c(=O)[nH]c1=O,12%
COC(=O)[C@@H]1[C@@H](C(=O)OC)C2(c3ccccc3-c3ccccc32)N(c2ccc(Cl)cc2)N1C#N,u
Cc1ccc2c(c1)N(C(C)C(=O)N1CCC3(CC1)OCCO3)C(=O)CO2 (stereo not drawn),-12%
CC12CCC(=O)CC1CCC1C2C(=O)CC2(C)C1CCC2(C)O (stereo not drawn),-14%
Cc1ccccc1N1C(=O)NC(=O)/C(=C/c2ccc(N3CCOCC3)o2)C1=O,-4%
CC12CN3CC(C)(CN(C1)C3c1cccs1)C2=O (stereo not drawn),-5%
O=C(NCCN1CCOCC1)c1ccc(Cl)nc1Cl,-9%
COC(=O)CC1=C(C(=O)OC)C2(C(=O)N(C)c3ccccc32)C(C#N)=C(N)O1 (stereo not drawn),23%
c1cc2c(c(N3CCNCC3)c1)OCCO2,-2%
COC(=O)C1=C(c2cc3ccccc3s2)C[C@@H]2CC[C@H]1N2C(=O)N1CCC(O)CC1,7%
CC(C)(C#CC(=O)O)OOC(c1ccccc1)(c1ccccc1)c1ccccc1,u
CCN1CCN(C(=O)Cc2c(C)n(C(=O)c3ccc(Cl)cc3)c3ccc(OC)cc23)CC1,-1%
c1ccc2c(CN3CCCCCC3)c[nH]c2c1,-1%
O=C(NC(Cc1ccccc1)C(=O)N1CCC2(CC1)OCCO2)C1CCCCC1 (stereo not drawn),1%
CCN1/C(=C\C=C\C2=[N+](CC)c3ccccc3C2(C)C)C(C)(C)c2ccccc21,-10%
O=[N+]([O-])c1ccccc1CCl,-6%
CCCC(=O)NC(Oc1ccc(OC)cc1)C(Cl)(Cl)Cl (stereo not drawn),-2%
CO/C1=C\C(C)=C\[C@@H](C)[C@@H](O)[C@H](C)C/C(C)=C/C=C/[C@H](OC)[C@H]([C@@H](C)[C@@H](O)[C@H](C)[C@H]2C[C@@H](O)[C@H](C)[C@@H](C(C)C)O2)OC1=O,-1%
CCc1ccc(OCC(=O)N2CCN(CCc3ccccn3)CC2)cc1,-1%

# Brought forward from above: 5 compounds, then new ones.
SMILES,VDR inhibitor
CCN1/C(=C\C=C\C2=[N+](CC)c3ccccc3C2(C)C)C(C)(C)c2ccccc21,-10%
O=[N+]([O-])c1ccccc1CCl,-6%
CCCC(=O)NC(Oc1ccc(OC)cc1)C(Cl)(Cl)Cl (stereo not drawn),-2%
CO/C1=C\C(C)=C\[C@@H](C)[C@@H](O)[C@H](C)C/C(C)=C/C=C/[C@H](OC)[C@H]([C@@H](C)[C@@H](O)[C@H](C)[C@H]2C[C@@H](O)[C@H](C)[C@@H](C(C)C)O2)OC1=O,-1%
CCc1ccc(OCC(=O)N2CCN(CCc3ccccn3)CC2)cc1,-1%
Cn1c[n+](C)cc1C(O)c1ccccc1 (stereo not drawn),8%&6%
O=C1NC(=O)C(CCc2ccncc2)(C2CCCCC2)C(=O)N1,13%
Cc1cc(=O)oc2cc(OCC(=O)N3CCN(Cc4ccc5c(c4)OCO5)CC3)ccc12,-6%
CN(N)N=Nc1nc2c([nH]1)c(=O)n(C)c(=O)n2C,-17%
c1ccc2nc(N3CCNCC3)ccc2c1,3%&1%&-18%&-6%&-2%
C=CCN1CC[C@]23c4c5ccc(O)c4OC2C(O)C=CC3[C@H]1C5 (stereo partly drawn),-7%
OCC1OC(n2cnc3cc(Cl)c(Cl)cc32)C(O)C1O (stereo not drawn),14%&15%
CCOC(=O)C1=C(N)Oc2cc(C)oc(=O)c2C12C(=O)N1c3c(cccc32)C(C)CC1(C)C (stereo not drawn),-2%
C[C@H]1CC2C3CC=C4C[C@@H](O)CC[C@]4(C)C3CC[C@]2(C)[C@H]1O (stereo partly drawn),-12%
CC(C)N(Cc1ccco1)/N=C/c1c(O)n(Cc2ccccc2)c(=O)[nH]c1=O,-8%
CC(=O)N1CC(=O)Nc2ccc(Cl)cc2C1c1ccccc1 (stereo not drawn),-6%
O=C1CC(N2CC=C(c3ccccc3)CC2)C(=O)N1c1ccc(F)cc1 (stereo not drawn),-10%
COc1ccccc1C1SCC(=O)Nc2c1c(C)nn2-c1cccc(C)c1 (stereo not drawn),-4%
CCN1CCN(S(=O)(=O)c2ccc(Cl)nc2)CC1,-7%
COC(=O)C1=C(c2cccc(C#N)c2)C[C@@H]2CC[C@H]1N2C(=O)NCCOc1ccc(OC)cc1,0%
CC(C)(C)c1ccc(O)c(N=Cc2c(O)ccc3ccccc23)c1,14%
C[C@@]12CCC(=O)C=C1C=C[C@H]1[C@H]3CC[C@](O)(CCC(=O)O)[C@]3(C)CC[C@@H]12,-1%
CC1CCC(C)(NS(=O)(=O)OCC(Cl)(Cl)Cl)CC1 (stereo not drawn),-3%
CNC(C)C1CC[C@H](N)[C@@H](OC2C(N)C[C@H](N)[C@@H](OC3OC[C@](C)(O)C(NC)[C@H]3O)C2O)O1 (stereo partly drawn),0%
O=c1[nH]c(=O)n(Cc2ccccc2Cl)c(O)c1C=Nc1ccc(F)cc1,5%
CC(C)C(Br)C(=O)NC(N)=O (stereo not drawn),1%
COc1ccc(/C=C/c2nc3ccccc3c(=O)n2-c2ccc(C)cc2)cc1O,-13%
BrCC1C[n+]2c(SCc3ccccc3)nc3sc4c(c3c2O1)CCCC4 (stereo not drawn),-14%
Cc1cc(N2CCN(C)CC2)nc2ccccc12,4%
O=P(Nc1cccc(F)c1)(Oc1ccccc1F)Oc1ccccc1F,-14%

# (next part)
SMILES,VDR inhibitor
C[C@@H]1O[C@@H](O[C@H]2C[C@@H](O)[C@]3(CO)[C@@H]4C(CC[C@]3(O)C2)[C@@]2(O)CC[C@H]([C@@H]3COC(=O)C3)[C@@]2(C)C[C@H]4O)[C@H](O)[C@H](O)[C@H]1O (stereo partly drawn),-1%
CCOC(=O)c1cc(C)sc1/N=C/C1C(=O)NC(=S)NC1=O,u
COC(=O)C(C)Oc1cc(C)cc2oc(=O)c3c(c12)CCCC3 (stereo not drawn),-11%
O=P(NS(=O)(=O)c1ccc(Br)cc1)(Oc1ccccc1)Oc1ccccc1,0%
COc1ccc(CCn2c(O)c(C=NC3CC3)c(=O)[nH]c2=O)cc1OC,8%
Cc1nc2ccccn2c1P(=S)(N1CCCCC1)N1CCCCC1,-10%
COC(=O)C(O)(c1c(C)[nH]c2ccccc12)C(F)(F)F (stereo not drawn),10%
O=C(N/N=C/c1c(O)n(Cc2ccc(F)cc2)c(=O)[nH]c1=O)c1ccccc1,-10%
CCOc1ccc(-n2c(O)c(C=NCCN(CC)CC)c(=O)[nH]c2=O)cc1,4%
OC12Oc3ccccc3C=C1N1CCC2CC1 (stereo not drawn),-4%
Cc1cccc(C#N)c1,3%
COc1cccc(C(=O)C2CCCN(Cc3ccc4nsnc4c3)C2)c1 (stereo not drawn),10%
ON1C2CCCCC2N(O)C1c1ccccc1 (stereo not drawn),0%
COc1cccc(C(=O)C2CCCN(Cc3ccc(F)cc3)C2)c1 (stereo not drawn),-3%
CCOC(=O)c1ccc(N=C(c2ccccc2)c2c(O)n(C)c(=O)n(C)c2=O)cc1,-20%
O=c1c2ccccc2nc(/C=C/c2cccnc2)n1Cc1ccccc1,u
c1ccc(N2CC[C@@]3(CCCNC3)C2)nc1,u
CC1CN(O)C2CCc3nonc3C12O (stereo not drawn),4%
Cc1oc2cc3oc(=O)c(CCC(=O)N4CCCCC4)c(C)c3cc2c1C,-2%
C[C@]12CCC3C(CC[C@]4(O)CC(O)CC[C@@]34C=O)[C@]1(O)CCC2C1=CC(=O)OC1 (stereo partly drawn),8%
CC(=O)OC1C2CCCC1C(N1CCCC1)CC2 (stereo not drawn),4%&4%
COc1ccc(OCC(=O)N2CCN(Cc3c[nH]c4ccccc34)CC2)cc1,-11%
CC(C)c1ccc(OCC(=O)N2CCN(C)CC2)c(Br)c1,-7%
CC(=O)/C=C/c1ccccc1,-9%
COP(=O)(C#Cc1ccccc1)C(O)c1ccc(Br)cc1 (stereo not drawn),-14%

# Other structures follow.
SMILES,VDR inhibitor
CN1C(=O)c2ccccc2NC(=O)[C@]12O[C@@H]2c1ccccc1,-21%
CC/C=C\C[C@@H](/C=C/C=C\C/C=C\C/C=C\CCCC(=O)O)OO,4%
O=c1[nH]c(=S)[nH]c(O)c1/C=N/N1CCOCC1,-1%
CCc1ccc(-c2nn(Cc3ccccc3)cc2C=O)cc1,9%
CN1C(=O)C(=Cc2ccccc2OCc2ccc(C(=O)O)cc2)C(=O)N(C)C1=O,u
O=[N+]([O-])c1ccc(CN2CC=C(c3ccccc3)CC2)cc1,3%
CN1CC[C@@]2(CCCN(C(=O)c3ccco3)C2)C1,5%
COc1cc2c(c(OC)c1OC)-c1ccc(O)c(=O)cc1[C@@H](N)CC2,-1%
CC1CCCC(C2(O)C(=O)Nc3ccccc32)C1=O (stereo not drawn),-8%
C=CCn1c(O)c(C(C)=NCC2CCCO2)c(=O)[nH]c1=O (stereo not drawn),18%
CCn1ccnc1CN1CCCC(C(=O)c2ccc(SC)cc2)C1 (stereo not drawn),-9%
Cc1cc(OCC(=O)NC(Cc2ccc(Cl)cc2)C(=O)O)c2c3c(c(=O)oc2c1)CCC3 (stereo not drawn),-1%
CCCCCCn1c(=O)c(C(=O)Nc2nc(CC(=O)OCC)cs2)c(O)c2ccccc21,0%
COc1ccc(NC(=O)N2CCC3(CC2)OCCO3)cc1OC,-6%
Cc1ccc2c(C)cccc2c1,-3%
CC1(C)S[C@H]2[C@@H](N)C(=O)N2[C@H]1C(=O)O,0%
Cc1cc(C)cc(NC(=S)NC2CC3CCCC(C2)N3Cc2cccs2)c1 (stereo not drawn),-15%
Cc1ccc(N2C(=O)NC(=O)/C(=C/c3ccoc3)C2=O)cc1,3%
COC(=O)c1c2[n+](cc3cc(OC)c(OC)cc13)CCc1cc(OC)c(OC)cc1-2,-13%
COC(=O)C1=C(c2ccc(F)cc2OCc2ccccc2)C[C@@H]2CC[C@H]1N2C(=O)NCc1ccc(Br)cc1,u
CCn1cc(C(=O)c2cccs2)c2ccccc21,17%
O=C(COc1ccccc1)N1CCN(Cc2c[nH]c3ccccc23)CC1,-6%
Cn1c(=O)cc(OCCCC(=O)N2CCC3(CC2)OCCO3)c2ccccc21,-9%
O=c1cccc2n1CC1CC2CN(c2nc(N3CCCCC3)nc(N3CCCCC3)n2)C1 (stereo not drawn),-2%
CCC1CCC(C)N(N=O)C1 (stereo not drawn),-9%

# Rewritten bar-delimited: seven of the compounds above
canonical_smiles | VDR inhibitor
COc1ccc(NC(=O)N2CCC3(CC2)OCCO3)cc1OC | -6%
Cc1ccc2c(C)cccc2c1 | -3%
CC1(C)S[C@H]2[C@@H](N)C(=O)N2[C@H]1C(=O)O | 0%
Cc1cc(C)cc(NC(=S)NC2CC3CCCC(C2)N3Cc2cccs2)c1 (stereo not drawn) | -15%
Cc1ccc(N2C(=O)NC(=O)/C(=C/c3ccoc3)C2=O)cc1 | 3%
COC(=O)c1c2[n+](cc3cc(OC)c(OC)cc13)CCc1cc(OC)c(OC)cc1-2 | -13%
COC(=O)C1=C(c2ccc(F)cc2OCc2ccccc2)C[C@@H]2CC[C@H]1N2C(=O)NCc1ccc(Br)cc1 | u

# Continuation:
SMILES,VDR inhibitor
CCC[N+]12CCC(CC1)C(=C(c1ccccc1)c1ccccc1)C2,8%
COc1ccc(/C=C2\C(=O)NC(=O)N(CCC3=CCCCC3)C2=O)c(OC)c1,u
C=C(Cl)CSC(=S)N(CC)CC,7%
Cc1ccccc1N1CCN(Cc2ccc3c(c2)OCO3)CC1,2%
CCOCCN1CCC(OC(C)=O)C(C)C1 (stereo not drawn),13%
CC(=O)OC1C2C(OC(=O)Cc3ccccc3)C(C)CC2(OC(C)=O)C(=O)/C(C)=C/C2C(CC[C@@]13CO3)C2(C)C (stereo partly drawn),5%
CSCCC(N=Cc1c(O)n(-c2ccc(Cl)cc2)c(=O)[nH]c1=O)C(=O)OC(C)(C)C (stereo not drawn),1%
CC(=O)OO,1%
Cc1ccc(/C=C2\C(=O)NC(=S)N(c3ccccc3F)C2=O)s1,u
COc1ccc(/C=C2\C(=O)NC(=O)N(Cc3ccccc3)C2=O)c(OC)c1OC,u
CCOCCc1c(O)[nH]c(=S)[nH]c1=O,u
CCC(C)NC(=O)CCC(=O)OC1O[C@H]2OC3(C)CC[C@H]4[C@H](C)CCC(C1C)C24OO3 (stereo partly drawn),-1%
CC(C)CCn1c(=O)c(C(=O)Nc2ccccc2S(N)(=O)=O)c(O)c2ccccc21,-26%
S=C1Nc2ccccc2Sc2ccccc21,-15%
CCc1nc2ccccc2c(=O)n1-c1ccccc1OC,-4%
CC(C)N1CCN(Cc2c[nH]c3ccccc23)CC1CCO (stereo not drawn),9%
Cc1ccc(C)c(C2(O)CC(C)N(C)CC2C)c1 (stereo not drawn),0%
COc1ccccc1-n1c(O)c(C=NCc2ccc3c(c2)OCO3)c(=O)[nH]c1=O,1%
O=P1(N(CCCl)CCCl)NCCCO1 (stereo not drawn),7%&-21%&-2%&4%
CC(C)Sc1nnc(OC(=O)N(C)C)n1-c1ccccc1,-19%
CCCCn1c(O)c(/C(C)=N/NC(=O)Nc2ccccc2)c(=O)[nH]c1=O,-25%
CN1C[C@@H]2C[C@@H](c3cccn3-c3ccccn3)N3CCC[C@@]23C1=O,11%

# Two records drawn at random from the list so far:
SMILES,VDR inhibitor
CC(=O)OO,1%
CCOCCc1c(O)[nH]c(=S)[nH]c1=O,u

# These rows are one share of the data, so the mix of outcomes need not match the whole.
